Source: PubChem BioAssay
Marburg entry inh = blocks Marburg virus binding to or entry into cells | Marburg virus pseudotyped entry inhibition, cell reporter; control for the full effect not named in the record; about a third of the inactives were read at about 46 µM | Potency, µM (titrated, usually from 37.8 µM), inactives show at the top dose activity change, negative = inhibition, actives largely listed as inhibitors | 300,000 tested, 1.8% active; active = well fitted inhibition curve with a large enough effect; inconclusive = small, poorly fitted or top-dose-only effect, or effect the other way; inactive = flat fitted curve, though single readings scatter; tested in HEK293 cells; about a fifth of its hits are not listed in these tables; also: % is scaled to controls: 0 for no effect and ±100 for the full control effect; luciferase read-out
RE007 growth inh = less growth of the S. pombe RE007 Vpr strain. S. pombe RE007 Vpr strain, BacTiter-Glo ATP luminescence, 24 h; control for the full effect not named in the record. Potency, µM (series often up to 92.2 µM), without a hit: at the highest dose activity change, negative = less growth. 360,000 tested, 0.21% active. AID 651644; active = well fitted falling curve with a large enough effect; inconclusive = small, poorly fitted or top-dose-only effect; inactive = no such curve, though single readings can be large or run the other way;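 also: % is scaled to controls: 0 for no effect and ±100 for the full control effect; nearly all actives have a fitted effect of over 50% in size; the assay follows cell death caused by Vpr and the record does not say whether a fall means rescue or toxicity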
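Fission yeast RE007 carrying one integrated HIV-1 vpr copy, seeded at OD 0.01 in PMG+AL medium with 23 nL pinned compound. Grown 24 h at 30 degrees; viability read by BacTiter-Glo luminescence after 5 min.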
LASV entry inh = blocks Lassa virus binding to or entry into cells | Lassa virus pseudotype entry inhibition, cell reporter; control for the full effect not named in the record | Potency, µM (top dose mostly 37.9 µM), inactives show at the highest dose activity change, negative = inhibition, hits mostly inhibitors | 300,000 tested, 1.2% active | AID 540256; active means well fitted inhibition curve with a large enough effect; inconclusive means small, poorly fitted or top-dose-only effect, or effect the other way; inactive means flat fitted curve, though single readings scatter; tested in HEK293 cells; also: % is scaled to controls: 0 for no effect and ±100 for the full control effect; nearly all actives have a fitted effect of over 50% in size; luciferase read-out
NS1 inh = blocks influenza NS1 protein function; S. cerevisiae slowed by influenza A NS1, growth recovery by OD600; Potency, µM (doses to about 46.1 µM), inactives show at the top dose activity, positive = more growth; 270,000 tested, 0.4% active; also: actives are rising curves; nearly all actives have a fitted effect of over 50% in size
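Growth recovery, yeast-based: influenza A NS1 expressed in S. cerevisiae causes slow growth, and suppressors are detected by OD600. The parent strain without NS1 is used as positive control.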
Cruzain noTriton = inhibitors of Trypanosoma cruzi cruzain without detergent. AID 1476. 200,000 tested, 2.3% active. P25779. purified cruzain, Z-FR-AMC fluorescence, no detergent. Potency, µM, for inactives: max response, negative = inhibition, usual class: inhibitors; active = well fitted curve in the direction sought with a large enough effect; inconclusive = small, poorly fitted or top-dose-only effect, or another doubt; inactive = no such curve, though single readings can be large; an effect the other way counts as inactive or inconclusive;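 also: plate controls were enzyme without inhibitor for no effect and buffer without enzyme for full effect; nearly all actives have a fitted effect of over 40% in size; top concentration of the series not given in the record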
Target sequence (P25779 123-467 limits assumed): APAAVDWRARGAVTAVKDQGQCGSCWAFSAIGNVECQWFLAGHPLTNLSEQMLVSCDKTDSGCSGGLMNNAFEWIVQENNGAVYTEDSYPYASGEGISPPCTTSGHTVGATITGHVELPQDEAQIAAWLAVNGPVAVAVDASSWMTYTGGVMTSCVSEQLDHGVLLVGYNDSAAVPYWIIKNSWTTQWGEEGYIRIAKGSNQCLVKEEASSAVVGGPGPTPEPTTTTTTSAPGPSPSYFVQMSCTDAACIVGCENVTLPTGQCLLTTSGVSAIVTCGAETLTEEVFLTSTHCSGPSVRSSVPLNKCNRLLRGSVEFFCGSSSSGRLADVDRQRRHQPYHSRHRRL
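Purified cruzain at 1.5 nM, pre-incubated 15 min with compound at room temperature in 100 mM sodium acetate pH 5.5, 5 mM DTT, 0.00005% Triton X-100. Reaction started with 2 uM Z-FR-AMC; AMC fluorescence increase over 60 s gives rate.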
2A StopGo = lowers the luciferase signal of an FMDV 2A StopGo reporter; human cells with a luciferase reporter of 2A StopGo recoding; control for the full effect not named in the record; Potency, µM (highest dose often 57.9 µM), inactives show at the top dose signal change, negative = less light; 410,000 tested, 1.2% active; AID 1159524; active = well fitted falling curve with a large enough effect; inconclusive = small, poorly fitted or top-dose-only effect; inactive = no such curve, though single readings can be large or run the other way; tested in HEK293T cells; also: % is scaled to controls: 0 for no effect and ±100 for the full control effect; nearly all actives have a fitted effect of over 45% in size; luciferase light after 4 h
Cruzain Triton = blocks cruzain activity in presence of Triton detergent; 200,000 tested, 0.43% active; P25779; Potency, µM, for inactives: max response, negative = inhibition, hits mostly inhibitors; purified cruzain, Z-FR-AMC fluorescence, 0.01% Triton; AID 1478; active = well fitted curve in the direction sought with a large enough effect; inconclusive = small, poorly fitted or top-dose-only effect, or another doubt; inactive = no such curve, though single readings can be large; an effect the other way counts as inactive or inconclusive;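 also: plate controls were neutral wells for no effect and buffer without enzyme for full effect; nearly all actives have a fitted effect of over 40% in size; top concentration of the series not given in the record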
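Detergent-containing arm of a paired screen for aggregation-based inhibition: 0.01% Triton X-100 present. Cruzain at 1.5 nM cleaved 2 uM Z-FR-AMC at pH 5.5 with 5 mM DTT; AMC fluorescence gain over 60 s measured activity.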
SARS PLpro yeast = blocks SARS-CoV papain-like protease in a yeast assay; AID 485353; 330,000 tested, 0.19% active; S. cerevisiae expressing SARS-CoV PLpro, growth rescue; control for the full effect not named in the record; Potency, µM (series often up to 32.9 µM), for inactives: at the highest dose activity, positive = growth rescue; also: 0% is about no effect; nearly all actives have a fitted effect of over 55% in size; growth read by luminescence after 48 h
The depositor's hits bear a star; ? = inconclusive; . = not tested or not shown; [ ] = another dose, or the depositor's remark. Unless noted, calls follow the shape of the dose curve; as a rule, active means well fitted rising curve with a large enough effect; inconclusive means small, poorly fitted or top-dose-only effect; inactive means no such curve, though single readings can be large or run the other way. Potency is read from the fitted curve at half-maximal effect.

SMILES | Marburg entry inh | RE007 growth inh | LASV entry inh | NS1 inh | Cruzain noTriton | 2A StopGo | Cruzain Triton | SARS PLpro yeast
C=C1CCC[C@]2(C)C[C@H]3OC(=O)C(CNC(C)CCCC(C)C)[C@H]3CC12 (stereo partly specified) | ? | ? | ? | 10% | . | -19% | . | -2%
NS(=O)(=O)c1cc2c(cc1Cl)NC(C1CC3C=CC1C3)NS2(=O)=O (stereo unspecified) | ? | 5%[18.4 µM] | 19% | 9% | 8% | -10% | 6.7% | .
O=C(CSc1nnc(CCc2nc3ccccc3[nH]2)n1-c1ccccc1)NCc1ccccc1 | -2% | 10% | -1% | -15% | 8% | -19% | 1.1% | -29%
COCCN(C/C=C/c1ccccc1)C/C=C/c1ccccc1 | -16% | 18% | -8% | -15% | . | ? | . | -3%
CC(=O)Nc1ccc(S(=O)(=O)N2CCC(N3CCN(Cc4ccc(C)cc4)C(=O)C3=O)CC2)cc1 | . | . | 20%[46.1 µM] | . | -5% | -11% | -0.1% | .
COc1ccccc1C(=O)Nc1ncc2c(n1)CC(c1ccco1)CC2=O (stereo unspecified) | -3% | 6% | -4% | -6% | -10% | . | 2.0% | 8%
COc1cc(SC)ccc1C(=O)Nc1ccon1 | 12% | -27% | ? | -11% | -5% | 53%[activator] | 2.3% | -2%
Cc1ccc(S(=O)(=O)N2c3ccccc3CC2C)cc1 (stereo unspecified) | ? | 72% | ? | -4% | . | -10% | . | 0%
COc1ccc(-n2nnnc2SCC(=O)N2CCCc3ccccc32)cc1OC | -13% | -3% | -4% | -4% | 29% | -27% | -4.5% | 9%
Cc1cc(-n2c(SCC(=O)NCc3cccs3)nc3n[nH]c(C)c3c2=N)ccc1Cl | ? | -1% | ? | 9% | ? | -16% | -7.3% | 2%
COc1ccc(Br)cc1C(=O)O | 20%[46.1 µM] | 6% | 22% | -1% | -10% | 1% | 3.0% | -4%
CCNC(=O)c1ccccc1NC(=O)c1cccc(S(=O)(=O)N2CCC(C)CC2)c1 | ? | 8% | -16% | -6% | 8% | ? | -4.1% | -5%
O=C(Nc1ccc(Cl)cc1)Nc1ccccn1 | . | 0% | . | -6% | . | 75%[activator] | . | -7%
Cc1nc(/N=C(\N)NC(=O)N2c3ccccc3Sc3ccccc32)nc2ccccc12 | -21% | -28% | -12% | 23% | 7.9µM* | -18% | -4.3% | -44%
CSc1ccccc1NC(=O)C1=CC(c2ccc(C)cc2)=NS(=O)(=O)N1C | . | 3% | . | -10% | . | -4% | . | -6%

Record cards, from the list above. Order of screens: Marburg entry inh, RE007 growth inh, LASV entry inh, NS1 inh, Cruzain noTriton, 2A StopGo, Cruzain Triton, SARS PLpro yeast
`COCCN(C/C=C/c1ccccc1)C/C=C/c1ccccc1` is entered as -16%, 18%, -8%, -15%, ., ?, ., -3%
`O=C(CSc1nnc(CCc2nc3ccccc3[nH]2)n1-c1ccccc1)NCc1ccccc1` is entered as -2%, 10%, -1%, -15%, 8%, -19%, 1.1%, -29%

(list continues)
SMILES | Marburg entry inh | RE007 growth inh | LASV entry inh | NS1 inh | Cruzain noTriton | 2A StopGo | Cruzain Triton | SARS PLpro yeast
COc1ccccc1-c1cc(N)n[nH]1 | 9% | 3% | 12% | ? | -19% | 10% | 1.5% | 0%
COc1ccc(/C=N/c2oc(-c3ccccc3)cc2C#N)cc1OC | ? | -26% | 13% | -6% | -3% | -6% | -7.5% | -7%
O=C(N/C(=C/c1ccc(Br)cc1)C(=O)N1CCOCC1)c1ccc(Br)o1 | -9%[46.1 µM] | 8% | -4%[46.1 µM] | -1% | . | 24% | . | 2%
CCc1ccc(S(=O)(=O)c2nnn3c2nc(Nc2cc(OC)cc(OC)c2)c2cc(Cl)ccc23)cc1 | -23%[46.1 µM] | . | . | . | -4% | 16% | 0.8% | .
CCOC(=O)CNc1cccc(C(F)(F)F)c1 | 2%[46.1 µM] | 7% | 4%[46.1 µM] | . | . | -1% | . | 2%
COc1ccc(CNC(=O)C2CCN(S(=O)(=O)c3ccc4c(c3)NC(=O)C(C)S4)CC2)cc1 (stereo unspecified) | . | -7% | . | 2% | . | -10% | . | 1%
O=C/C(=C\Nc1ccccn1)c1nc2ccccc2o1 | 4% | 14% | -14% | -9% | -19% | -10% | -11% | -22%
COc1ccccc1OCC(=O)NCC(C)NC(=O)COc1ccccc1OC (stereo unspecified) | ? | 3% | 3% | . | . | -4% | . | 4%
Cc1ccccc1NC(=S)NCc1ccc(F)cc1 | ? | 2% | -14%[46.1 µM] | 2% | . | 13% | . | 6%
O=C(c1ccco1)n1nc(-c2ccc(Cl)cc2)nc1NCc1ccc(F)cc1 | 18%[46.1 µM] | . | 0%[46.1 µM] | . | -4% | -3% | -1.2% | .
Cc1ccc(S(=O)(=O)NCC(=O)N(CCc2ccccc2)CC(=O)NCc2ccco2)cc1 | -15% | 26% | -1% | -1% | -5% | 27% | -1.8% | 2%
CN1CCN(C(CNC(=O)C(=O)Nc2cccc(Cl)c2)c2ccc3c(c2)OCO3)CC1 (stereo unspecified) | . | . | -27%[46.1 µM] | . | 10% | -14% | -3.4% | .
Cc1sc(NC(=S)NC(=O)c2ccc(C(C)(C)C)cc2)c(C#N)c1C | 8.2µM* | -2% | ? | 6% | 10µM* | ? | 1.3% | 4%
Cc1ccc(C(=O)CNc2cc(C)ccc2C)cc1 | 7%[46.1 µM] | -3% | ? | 2% | . | -11% | . | 2%
CC1(C)C(=O)Nc2ccccc2N1C(=O)CN1C(=O)c2ccccc2C1=O | 9% | -5% | 4% | -20% | -1% | -19% | 0.2% | 3%
NC(=O)C1CCN(C(=O)CCC(=O)c2ccc(F)cc2)CC1 | . | -16% | . | -2% | . | -5% | . | 1%
O=S(=O)(c1ccc(OC(F)(F)F)cc1)N1CCC(O)(c2cccc(C(F)(F)F)c2)CC1 | . | -2% | . | -2% | . | -27% | . | 0%
O=C(Nc1cccc(CCc2ccccn2)c1)c1cc(F)c(F)cc1Cl | 11% | ? | 3% | -16% | -8% | -17% | -1.0% | -14%
O=C(c1cnn2c(C(F)(F)F)cc(-c3ccccc3)nc12)N1CCC2(CC1)OCCO2 | 15% | -2% | -1% | -6% | -1% | 17% | 4.0% | 4%
COCCN(C(=O)COC(=O)c1cccc2ccccc12)c1c(N)n(Cc2ccccc2)c(=O)[nH]c1=O | 0% | -23% | 3% | 13% | . | -30% | . | -3%
CN(Cc1ccccc1)C(=O)CCSc1nc(-c2ccc3c(c2)OCO3)cc(C(F)(F)F)n1 | ? | 0% | ? | 26% | 23% | -18% | -23% | -13%
CC(=O)NC1=NN(C(C)=O)C(C)(c2ccc(Br)cc2)S1 (stereo unspecified) | ? | 10% | -18%[46.1 µM] | . | . | -10% | . | 2%
CN1C(=O)C(C)(C)c2cc(S(=O)(=O)N3CCC(C(=O)Nc4ccc(Cl)cc4)CC3)ccc21 | . | 17% | . | -3% | . | -26% | . | 4%
Cc1cc(N2CCOCC2)nc2ccc(NC(=S)NCCC(C)C)cc12 | -20%[46.1 µM] | -2% | ? | -4% | . | -19% | . | -6%
COc1cccc(OC)c1C(=O)Nc1ccc(S(=O)(=O)Nc2cc(C)nc(C)n2)cc1 | ? | 12% | 1% | -2% | -4% | 86%[activator] | 2.9% | 4%
COc1ccc(CNc2nc3ccccc3n2CCN2CCOCC2)cc1 | -13% | 0% | 14% | -2% | -16% | -8% | -1.5% | -4%
Clc1ccc(SCCCCN2CCNCC2)cc1 | ? | -8% | ? | ? | 7% | -1% | -6.3% | -22%
Cc1cccc(N2CCN(c3ccc(N4C(=O)CCCC4=O)cc3[N+](=O)[O-])CC2C)c1 (stereo unspecified) | ? | 0% | 24% | -9% | 28% | 0% | -8.2% | -9%
CCN(CC)CCCNC(=O)Cn1cc2c(n1)CCC(C)C2 (stereo unspecified) | 7% | 17% | 2% | ? | 3% | -23% | -0.6% | -4%
CC(=O)Nc1nc(C)c(-c2csc(Nc3cccc(C(C)=O)c3)n2)s1 | . | -5% | . | 6% | . | -9% | . | -4%
O=C(Nc1ccc(-c2nc3ccccc3[nH]2)cc1)c1ccc(N2C(=O)CCC2=O)cc1 | -1% | 1% | 0% | 28% | -11% | -8% | -13% | -13%
CCn1c(C)cc(=O)cc1-c1ccc(Cl)cc1 | ? | 2% | 25%[46.1 µM] | -4% | . | 3% | . | -1%
CC(=O)c1ccc(NC(=O)CSc2nnc(-c3ccncc3)o2)cc1 | -3% | -16% | 14% | . | . | -2% | . | -8%
Cc1cc(C)c(O)c(CN(C)Cc2cc(Cl)cc(Cl)c2O)c1 | 3.2µM* | ? | ? | . | . | -24% | . | .
Cc1ccc(-c2nnc(N(C)C(=O)C3CCCO3)s2)cn1 (stereo unspecified) | 10% | 4% | 15% | -8% | 2% | 26% | -2.0% | -1%
Cc1cccc(C(=O)Nc2nc3ccc(S(C)(=O)=O)cc3s2)c1 | . | -8% | . | 15% | . | 30%[activator] | . | -10%
C#CC[N+]1(CC#Cc2ccc(C#CC[N+]3(CC#C)CCOCC3)cc2)CCOCC1 | 21% | -10% | 14% | 4% | -5% | 15% | -0.8% | -5%
COc1ccc(Cl)cc1NC(=O)Cn1nc(C(F)(F)F)c2c1CCCC2 | ? | . | -3%[46.1 µM] | . | 5% | -29% | -11% | .
O=C(CSCc1c(Cl)cccc1Cl)Nc1ccccc1-c1ccccc1 | ? | -3% | ? | 0% | -13% | -19% | -6.7% | 16%
O=C(Cn1ccccc1=O)NCc1ccc(F)cc1 | 18%[46.1 µM] | 14% | 25% | 11% | . | 15% | . | 8%
CC(C)(C)OC(=O)N1CCC(CNC(=O)c2cccs2)CC1 | 1%[46.1 µM] | 37% | 15% | -5% | . | -5% | . | 1%
CCOC(=O)N1CCN(C(=O)c2nc3ccccc3s2)CC1 | ? | 21% | 0% | -6% | 8% | 32%[activator] | -5.1% | -3%
O=C(CSc1ncc2c(n1)-c1cc(Cl)ccc1N(Cc1ccccc1)S2(=O)=O)NCCc1ccccc1 | . | . | 24%[46.1 µM] | . | 6% | -26% | 3.2% | .
